# Bioassay records deposited in PubChem BioAssay by National Center for Advancing Translational Sciences (NCATS).
# gsp antagonist: antagonists of gsp mutant (McCune-Albright syndrome); gsp-mutant cells, cAMP HTRF, 30 min; control for the full effect not named in the record; Potency, µM (highest dose often 76.9 µM), inactives show at the highest dose activity change, negative = inhibition, hits mostly inhibitors; 340,000 compounds, 0.4% hits; AID 624288; active = falling curve of any shape with a large fitted effect; inconclusive = falling curve, mostly with a smaller effect; inactive = flat or rising curve; cell line not stated here;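 also: intracellular cAMP measured with PDE inhibitor Ro 20-1724 present during compound exposure; potency is read from the fitted curve at half-maximal effect; % is scaled to controls: 0 for no effect and ±100 for the full control effect; nearly all actives have a fitted effect of over 65% in size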
#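 G418-selected cells were plated in DMEM/10% FBS for 16-24 h at 37C, then treated with compounds plus the PDE inhibitor […] (300 uM solution added) for 30 min at 37C. Intracellular cAMP was measured by HTRF after 30 min lysis at room temperature.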
# CtBP-E1A blk: blocks the CtBP interaction with E1A; AlphaScreen GST-E1A/His-CtBP binding, 1536-well; stronger effect = lower value; control for the full effect not named in the record; activity change, % (no concentration beside the values); 340,000 compounds, 0.49% hits; in the data active means activity change below about -65%; inconclusive means about -30% to -65%; inactive means above about -30%; also: % is scaled to controls: 0 for no effect and ±100 for the full control effect
#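 GST-E1A and His-tagged CtBP (125 nM each as 5X stock) were preincubated with pin-transferred compound for 2 h at 37 °C in the dark, then glutathione donor and nickel acceptor beads were added for 1 h before AlphaScreen reading.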
# Sfp PPTase inh: Sfp phosphopantetheinyl transferase inhibition; Q9F4F7; Biochemical Sfp PPTase activity, qHTS; Potency, µM, for inactives: max response, negative = inhibition, hits mostly inhibitors; 310,000 compounds, 3.5% hits; active = well fitted inhibition curve with a large enough effect; inconclusive = small, poorly fitted or top-dose-only effect, or another doubt; inactive = no such curve, though single readings can be large or run the other way;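 also: the enzyme is Sfp with the accession as filed and its product quenches rhodamine fluorescence; potency is read from the fitted curve at half-maximal effect; 0% = enzyme reaction without inhibitor and -100% = no enzyme wells; top concentration of the series not given in the record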
#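 With Hepes-Na pH 7.6 buffer containing 10 mM MgCl2, Sfp (15 nM) modified BHQ-2-YbbR (12.5 uM) using rhodamine-CoA (5 uM). Two reads 30 minutes apart at 525/598 nm yielded each well's rate.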
# gsp agonist: activates gsp, the McCune-Albright syndrome mutation | Potency, µM (series often up to 76.9 µM), without a hit: at the top dose activation (cAMP increase), actives largely listed as activators | 340,000 compounds, 0.13% hits | gsp mutant cells, cAMP HTRF, 30 min; control for the full effect not named in the record; active = well fitted activation curve with a large enough effect; inconclusive = small, poorly fitted or top-dose-only effect, or another doubt; inactive = no such curve, though single readings can be large or run the other way; cell line not stated here;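 also: phosphodiesterase inhibitor Ro 20-1724 added with compounds to block cAMP breakdown; potency is read from the fitted curve at half-maximal effect; nearly all actives have a fitted effect of over 60% in size; about a fifth of the inactives were tested at one dose only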
#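 Cells in DMEM/10% FBS with G418 were pretreated with compounds in DMSO plus […] (300 uM stock) for 30 min at 37C. cAMP was measured by HTRF (cAMP-d2 plus anti-cAMP antibody-K) after 30 min at room temperature.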
# Menin-MLL FL inh: menin-MLL binding inhibition, fluorescein peptide. Fluorescence polarization, fluorescein-MLL peptide displacement from menin. FP activity change, % at 61.4 µM. 290,000 tested, under 10 active. AID 1766; inconclusive = falling polarisation curve, or a change in total fluorescence; inactive = total fluorescence flat and polarisation flat or rising; no compound was filed as active; the % refers to the polarisation; negative = inhibition;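 also: % of control where 0% means no effect; inhibitors lower the polarisation; unlabelled MLL peptide was the positive control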
# ClpP mod: qHTS Assay for Activators of ClpP. ATP-dependent Clp protease proteolytic subunit (Bacillus subtilis (strain 168)), P80244. purified B. subtilis ClpP, FRET peptide cleavage, 20 min. 340,000 compounds, 1.9% hits. Potency, µM (series often up to 57.5 µM), without a hit: at the top dose activity change, negative = active. AID 651965, 2013; active = well fitted falling curve with a large enough effect; inconclusive = small, poorly fitted or top-dose-only effect; inactive = no such curve, though single readings can be large or run the other way; also: potency is read from the fitted curve at half-maximal effect; the source files actives as falling curves though it sought activators and does not explain the sign; nearly all actives have a fitted effect of over 65% in size; many hits overshoot -100%
# Target sequence (P80244 whole entry, looked up): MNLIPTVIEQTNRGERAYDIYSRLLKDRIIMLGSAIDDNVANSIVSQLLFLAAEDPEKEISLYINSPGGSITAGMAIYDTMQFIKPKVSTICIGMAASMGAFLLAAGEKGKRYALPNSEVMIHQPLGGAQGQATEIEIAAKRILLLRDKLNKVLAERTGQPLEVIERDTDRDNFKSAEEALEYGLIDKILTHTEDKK
#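 FRET quenching reversal measured ClpP activation: 10 microg/mL B. subtilis ClpP at pH 8 with the FRET-FV decapeptide, read at 430 nm after 320 nm excitation. The 20-min minus 0-min signal was scaled between DMSO/no-enzyme wells and ADEP (5.8 microM final).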
# TRPV1 potentiator: potentiators of human vanilloid receptor 1 (TRPV1); Q8NER1; TRPV1-expressing cells, Fluo-8 calcium influx, capsaicin EC20 potentiation; host cell line not named in the record; control for the full effect not named in the record; potentiation, % at 8.33 µM; 320,000 compounds, 0.02% hits; active means potentiation above 80%; inconclusive means 30% to 80%; inactive means below 30%; also: 0% is about no effect
# Target sequence (Q8NER1 whole entry, looked up): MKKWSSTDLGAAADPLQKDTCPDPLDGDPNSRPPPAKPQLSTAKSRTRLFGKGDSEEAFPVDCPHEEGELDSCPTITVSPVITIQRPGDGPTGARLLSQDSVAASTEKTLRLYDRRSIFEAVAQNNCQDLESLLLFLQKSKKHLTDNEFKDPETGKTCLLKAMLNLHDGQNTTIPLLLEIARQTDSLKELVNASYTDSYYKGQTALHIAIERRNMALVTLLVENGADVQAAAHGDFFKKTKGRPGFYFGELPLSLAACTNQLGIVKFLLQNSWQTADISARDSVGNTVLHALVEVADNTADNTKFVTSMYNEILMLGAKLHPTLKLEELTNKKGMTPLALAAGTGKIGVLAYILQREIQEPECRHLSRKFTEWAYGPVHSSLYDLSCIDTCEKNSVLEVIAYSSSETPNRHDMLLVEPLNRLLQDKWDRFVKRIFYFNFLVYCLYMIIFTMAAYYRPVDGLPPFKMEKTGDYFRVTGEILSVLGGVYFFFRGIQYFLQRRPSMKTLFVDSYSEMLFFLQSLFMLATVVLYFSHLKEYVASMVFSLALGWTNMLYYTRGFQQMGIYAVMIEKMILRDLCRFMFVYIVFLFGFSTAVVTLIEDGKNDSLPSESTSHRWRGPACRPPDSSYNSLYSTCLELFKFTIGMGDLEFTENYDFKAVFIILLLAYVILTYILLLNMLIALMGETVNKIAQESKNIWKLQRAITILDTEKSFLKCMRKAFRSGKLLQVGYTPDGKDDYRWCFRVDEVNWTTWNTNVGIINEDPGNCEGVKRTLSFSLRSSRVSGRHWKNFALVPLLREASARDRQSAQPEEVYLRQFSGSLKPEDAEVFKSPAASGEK
#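 Cells expressing TRPV1 were dye-loaded with Fluo-8 and read kinetically: 10 s baseline, 3 min after compound (agonist portion), then 2 min after EC20 capsaicin (allosteric enhancer portion). Calcium-bound dye fluorescence at 480/520 nm.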
# The depositor's hits bear a star; ? = inconclusive; . = no result given; & = joins results of further samples; [ ] = dose if it differs, or a comment. An unsorted share of the library. Share with any hit: about 5.3%.
1) Oc1ccc(-c2cnc(-c3ccc(O)cc3)nc2)cc1
2) Cc1cccc(-n2c(C)nc3ccsc3c2=O)c1
3) S=c1[nH]nc(-c2ccccn2)n1/N=C/c1ccco1
4) CCOP(=O)(OCC)C(Nc1cccc(C)c1)c1ccc(F)cc1 (configuration not stated)
5) N/C(=N\OC(=O)CCc1ccccc1)c1ccccc1Cl
6) O=C(CN1CCc2cc3c(cc2C1)OCCCO3)Nc1cccc([N+](=O)[O-])c1
7) CCOC(=O)CSc1nc2ccccc2n1C(=O)OCC
8) O=C(CCC(=O)N1CCSc2ccccc21)NCc1cccc(Cl)c1

Compound	1	2	3	4	5	6	7	8
gsp antagonist	-1%	6%	-8%	-1%	-1%	-17%	1%	-11%
CtBP-E1A blk	-16	-1	0	-4	4	-24	6	6
Sfp PPTase inh	13%	.	45µM*	-11%	10%	-11%	-2%	3%
gsp agonist	0%[15.4 µM]	-1%[15.4 µM]	3%[15.4 µM]	-33%	-10%[15.4 µM]	10%	?	?
Menin-MLL FL inh	-1.2	.	-0.1	3.9	-0.1	2.9	6.4	-3.6
ClpP mod	.	.	-0.6%	1.8%	.	-13%	?	2.5%
TRPV1 potentiator	6	.	5	-11	1	7	2	23

# Sorted by molar mass (low to high): part of the list above.
5) N/C(=N\OC(=O)CCc1ccccc1)c1ccccc1Cl
8) O=C(CCC(=O)N1CCSc2ccccc21)NCc1cccc(Cl)c1
6) O=C(CN1CCc2cc3c(cc2C1)OCCCO3)Nc1cccc([N+](=O)[O-])c1

Compound	5	8	6
gsp antagonist	-1%	-11%	-17%
CtBP-E1A blk	4	6	-24
Sfp PPTase inh	10%	3%	-11%
gsp agonist	-10%[15.4 µM]	?	10%
Menin-MLL FL inh	-0.1	-3.6	2.9
ClpP mod	.	2.5%	-13%
TRPV1 potentiator	1	23	7

# Another view of some results above:
# The line under a structure holds: gsp antagonist, CtBP-E1A blk, Sfp PPTase inh, gsp agonist, Menin-MLL FL inh, ClpP mod, TRPV1 potentiator
6. O=C(CN1CCc2cc3c(cc2C1)OCCCO3)Nc1cccc([N+](=O)[O-])c1
  -17%, -24, -11%, 10%, 2.9, -13%, 7
7. CCOC(=O)CSc1nc2ccccc2n1C(=O)OCC
  1%, 6, -2%, ?, 6.4, ?, 2

# More records.
9) CSc1nc2ccccc2n1CC(=O)Nc1ccccc1
10) CC[C@]12C(=O)N(C)C[C@H]([C@@H]3C(=O)N(Cc4ccccc4)C(=O)[C@@H]31)N2C(=O)c1ccc(C(C)(C)C)cc1
11) Cc1ccc(-c2noc(CNCCCN(C)C)n2)cc1
12) COc1ccc(NC(C)=O)cc1NC(=O)CN1CCN(C2c3ccccc3-c3ccccc32)CC1
13) CCCOc1ccc(-c2c(C(=O)N/N=C/c3ccc(OCC)cc3)nnn2-c2nonc2N)cc1
14) O=C(Nc1ccc2c(c1)CCC2)c1cc(=O)[nH]c2ccccc12
15) CCOC(=O)c1c(NC(=O)CSc2ncccn2)sc2c1CC(C)(C)NC2(C)C
16) CN(C(=O)c1ccc(S(=O)(=O)N2CCCC2)cc1)C1CCS(=O)(=O)C1 (configuration not stated)

Compound	9	10	11	12	13	14	15	16
gsp antagonist	1%	-2%	17%	?	-12%	4%	-7%	7%
CtBP-E1A blk	0	6	0	-1	-2	-1	-1	9
Sfp PPTase inh	-8%	.	8%	-12%	4%	3%	24%	.
gsp agonist	-24%	18%	-5%	12%	1%	11%[15.4 µM]	16%	-36%[inhibitor]
Menin-MLL FL inh	1.2	.	0.7	1.2	-1.1	-2.1	.	.
ClpP mod	-2.2%	-1.7%	0.7%	0.9%	?	.	-1.5%	0.7%
TRPV1 potentiator	3	.	2	-8	4	.	-6	-8

17) COc1ccc(C(=O)Nc2cc(C(=O)NCCc3ccccc3)ccc2Cl)cc1
18) COc1cc(NC(=O)c2[nH]cnc2C(N)=O)cc(C(=O)Nc2cccc(C(F)(F)F)c2)c1
19) CCCn1c(N)c(C(=O)CSc2nnc3ccccn23)c(=O)[nH]c1=O
20) Cc1ccc(S(=O)(=O)N2CCOCC2)cc1C(=O)NCc1ccco1
21) COc1ccc(OC)c(C(=O)CSc2nnc(-c3cccs3)o2)c1
22) CC1(C)CC(=O)C=C(c2ccc(CO)cc2)C1=O
23) COc1cccc(C(=O)Nc2ccc3[nH]c(=O)[nH]c3c2)c1OC
24) CCOC(=O)CC1C(=O)NCCN1Cc1cccc(OC)c1 (configuration not stated)

Compound	17	18	19	20	21	22	23	24
gsp antagonist	-10%	-9%	9%	7%	-11%	.	14%	-10%
CtBP-E1A blk	11	-7	0	15	10	0	-1	-10
Sfp PPTase inh	-3%	.	.	-7%	22%	.	-4%	-10%
gsp agonist	-9%	.	?	-25%	-27%	-31%[inhibitor]	0%[15.4 µM]	2%
Menin-MLL FL inh	3.7	.	.	7.4	0.9	.	4.1	-11
ClpP mod	0.7%	43%	-3.4%	0.1%	-18%	1.0%	.	-2.7%
TRPV1 potentiator	-4	.	.	-12	12	.	4	-11

25) CCOc1ccc(S(=O)(=O)NCCC(=O)Nc2nnc(C)s2)cc1
26) CCCCN1C(=O)N(CCc2ccc(F)cc2)S(=O)(=O)c2cc(C(F)(F)F)ccc21
27) O=C1c2c(O)cc(O)cc2O[C@@]12c1c(cc(O)c3c1O[C@H](c1ccc(O)cc1)[C@@H](O)C3)O[C@@H]2c1ccc(O)cc1
28) O=S(=O)(NC1CC1)c1ccc(F)c(F)c1
29) COc1ccc(-c2cc(OC(=O)c3ccc(F)cc3)c3c(C)oc(C)c3c(=O)c2)cc1
30) CC(=O)c1cnc(Nc2nc(C)c3ccccc3n2)nc1C
31) Fc1cc(F)cc(-c2c(-c3ccccc3)ncc3ccc(F)cc23)c1
32) O=C(NCc1ccccc1)c1ccc(CS(=O)(=O)Cc2ccc(F)cc2)o1

Compound	25	26	27	28	29	30	31	32
gsp antagonist	7%	5%	-11%	7%	.	.	?	-9%
CtBP-E1A blk	-9	16	-13	-2	.	.	1	.
Sfp PPTase inh	5%	.	21%	16%	?	22%	.	17%
gsp agonist	0%	.	-2%	11%[15.4 µM]	.	.	.	?
Menin-MLL FL inh	-0.2	.	5.4	2.7	?	3.0	.	.
ClpP mod	.	0.1%	-5.3%	.	.	.	-2.6%	-0.4%
TRPV1 potentiator	0	.	2	0	1	-1	3	-5

33) COC(=O)c1nnn(CC(=O)NC(=O)Nc2c(C)cccc2C)c1C(=O)OC
34) CC(C)c1nnc(NC(=O)CCS(=O)(=O)c2ccccc2)s1
35) CCCSc1oc(-c2ccco2)nc1S(=O)(=O)c1ccccc1
36) CC1CCCC(C)N1C(=O)COC(=O)c1cccc(S(=O)(=O)N(C)c2ccccc2)c1 (configuration not stated)
37) O=C1CN(c2ccccc2Cl)C(=O)CN1c1ccccc1Cl
38) CC(C)[C@H](NC(=O)c1ccc(Cl)cc1Cl)C(=O)NNc1cccc(C(=O)O)c1
39) O=C(N[C@H]1C/C=C\C[C@@H](CC(=O)N(CCO)Cc2ccccc2)C(=O)N[C@H](Cc2c[nH]c3ccccc23)COC1=O)OCC1c2ccccc2-c2ccccc21
40) O=C1CC(c2ccccc2)CN1C(=O)c1cncc(Br)c1 (configuration not stated)

Compound	33	34	35	36	37	38	39	40
gsp antagonist	-3%	8%	3%	?	10%	1%	-15%	14%
CtBP-E1A blk	0	6	0	-2	3	6	-8	3
Sfp PPTase inh	6%	11%	?	.	11%	.	.	9%
gsp agonist	-30%[inhibitor]	10%[15.4 µM]	-17%	-22%	-4%	12%	32%	-2%[15.4 µM]
Menin-MLL FL inh	0.4	-13	13	.	6.1	.	.	-0.7
ClpP mod	-1.0%&31%	.	-1.6%	1.4%	-0.3%	-1.0%	-2.6%	1.2%
TRPV1 potentiator	5	9	30	-16	-3	.	.	-4

# Single entries from above.
# In TRPV1 potentiator, no. 40 has the entry -4
# In CtBP-E1A blk, no. 35 has the entry 0

# Carrying on:
41) N#Cc1ccc(CSc2nnc(NC(=O)CN3C(=O)C4CC=CCC4C3=O)s2)cc1 (configuration not stated)
42) CN(/N=C/c1ccncc1)C1=NCCN1
43) CCCNC(=O)NCCC12CC3CC(CC(C3)C1)C2
44) O=C(Nc1ccccn1)N1CCOCC1
45) CC(C)NC(=S)N/N=C/c1ccc(N2CCOCC2)cc1
46) CCOC(=O)c1cc([N+](=O)[O-])sc1N
47) Cc1ccc2nc(NC(=O)CS(=O)(=O)Cc3ccccc3)sc2c1
48) O=C(CSc1n[nH]c(-c2cccnc2)n1)Nc1ccccc1C(F)(F)F

Compound	41	42	43	44	45	46	47	48
gsp antagonist	-20%	-2%	7%	11%	-19%	1%	15%	-1%
CtBP-E1A blk	2	5	-6	2	.	1	4	11
Sfp PPTase inh	-3%	2%	-9%	4%	5%	-16%	10%	9%
gsp agonist	-48%[inhibitor]	1%[15.4 µM]	-1%[15.4 µM]	?	-21%	4%	-2%[15.4 µM]	17%
Menin-MLL FL inh	0.2	-4.0	-2.4	2.0	2.1	-3.6	0.3	6.1
ClpP mod	-0.4%	0.8%	.	-3.0%	4.7%	.	.	.
TRPV1 potentiator	7	8	-15	9	2	2	0	-6

49) Cc1ccsc1CN(C)C(=O)C1CCC(=O)N(CCc2cccc(F)c2)C1 (configuration not stated)
50) CCOC(=O)c1cc2sccc2n1CC(=O)OC
51) CN1CCN(C(=O)c2ccc(COc3ccc(Cl)cc3Cl)cc2)CC1
52) N#Cc1c(-c2c(Cl)cccc2Cl)noc1/C=C/Nc1ccc(C(=O)O)cc1
53) COc1ccc(C2C(C(C)=O)=C(C)Nc3ncnn32)cc1OC (configuration not stated)

Compound	49	50	51	52	53
gsp antagonist	0%	4%	5%	-5%	12%
CtBP-E1A blk	4	-2	26	.	-8
Sfp PPTase inh	17%	1%	-20%	5%	8%
gsp agonist	-4%	?	-2%	26%	-23%
Menin-MLL FL inh	1.5	2.7	1.4	?	3.3
ClpP mod	1.2%	-2.0%	0.2%	?	0.7%
TRPV1 potentiator	-4	3	?	-9	7
